Rce1 inh = yeast Rce1p protease inhibitors, primary screen, biochemical, fluorescence, cell-free homogeneous; AID 2563, 2010; CAAX prenyl protease 2 (Saccharomyces cerevisiae (strain ATCC 204508 / S288c)), Q03530; yeast membranes, quenched prenylated peptide cleavage fluorescence; 290,000 compounds, 0.27% hits; calls only;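 active = fall in fluorescence gain of 50% or more versus controls, with final raw signal at or below 3038400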;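 also: plate controls were neutral control wells for no effect and wells lacking membranes for full effect; tested at 10 µM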
Target sequence (Q03530 whole entry, looked up): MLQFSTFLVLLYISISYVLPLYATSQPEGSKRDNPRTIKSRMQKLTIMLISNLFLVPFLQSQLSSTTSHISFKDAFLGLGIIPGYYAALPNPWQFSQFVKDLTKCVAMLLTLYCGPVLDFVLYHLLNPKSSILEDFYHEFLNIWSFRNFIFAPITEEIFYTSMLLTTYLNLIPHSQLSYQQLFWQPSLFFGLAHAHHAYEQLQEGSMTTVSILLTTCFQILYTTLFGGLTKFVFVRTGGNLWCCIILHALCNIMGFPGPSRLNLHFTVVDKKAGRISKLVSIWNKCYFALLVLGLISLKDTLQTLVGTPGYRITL
CSC inhib = cancer stem cell viability inhibitors, primary screen, luminescence | 300,000 compounds, 1.1% hits | cancer stem cell-like cells viability | AID 2717, 2010 | inhibition, % at 7.5 µM;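 active = mean at 75% or more and at least half the replicates too; tested in HMLE shEcad cells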;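 also: 0% = median of negative and 100% = median of positive control wells; the first replicate is given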
eIF4H FP inh = human eIF4H binding inhibitors, primary screen, translation initiation inhibitor project, biochemical, uHTS, fluorescence polarization | Eukaryotic translation initiation factor 4H (Homo sapiens), Q15056 | eIF4H fluorescence polarization binding assay | inhibition, % at 35 µM | 290,000 compounds, 0.94% hits | AID 2012, 2009;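 active = 50% or more with normal probe brightness, or confirmed in later tests; about a fifth of its hits are not listed in these tables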;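 also: calls also rest on retests at 20 µM and on dose response follow-up; 0% = protein and probe with vehicle and 100% = probe without protein; strong numbers were not always called active; many hits fall short of the cut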
MT1-MMP act inh = blockers of MT1-MMP proenzyme processing, primary screen, HT1080 RFP-PRO-GFP cells, GFP/RFP fluorescence | Matrix metalloproteinase-14 (Homo sapiens), P50281 | GFP/RFP ratio change, % at 20 µM | GFP/RFP ratio fluorescence, overnight; percent of plate control window, DMSO zero | 360,000 compounds, 0.061% hits;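 active = GFP/RFP ratio change of at least 30% with cell ATP level not reduced by more than half and red fluorescence within 50% of control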; also: strong numbers were not always called active
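Assay system: HT1080 RFP-PRO-GFP cells | Dosing: 20 µM single dose, 1% DMSO | Incubation: Cells overnight before dosing, compound overnight, 37 °C, 5% CO2 | Evaluation: GFP/RFP fluorescence ratio | Control set: DMSO-only wells and HT1080 RFP-L50D-GFP cell wells as references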
PABP polyA inh = PABP poly(A) RNA binding inhibitors, primary screen, biochemical, fluorescence polarization, uHTS; inhibition, % at 35 µM; Polyadenylate-binding protein 1 (Homo sapiens), P11940; 290,000 compounds, 1% hits;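 active = 50% or more with normal probe brightness, or confirmed in later tests; about a fifth of its hits are not listed in these tables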;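 also: calls also rest on retests at 20 µM and on dose response follow-up; controls were probe without protein and protein plus probe with vehicle; some compounds called inactive have numbers as strong as hits; many hits fall short of the cut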
Target sequence (P11940 whole entry, looked up): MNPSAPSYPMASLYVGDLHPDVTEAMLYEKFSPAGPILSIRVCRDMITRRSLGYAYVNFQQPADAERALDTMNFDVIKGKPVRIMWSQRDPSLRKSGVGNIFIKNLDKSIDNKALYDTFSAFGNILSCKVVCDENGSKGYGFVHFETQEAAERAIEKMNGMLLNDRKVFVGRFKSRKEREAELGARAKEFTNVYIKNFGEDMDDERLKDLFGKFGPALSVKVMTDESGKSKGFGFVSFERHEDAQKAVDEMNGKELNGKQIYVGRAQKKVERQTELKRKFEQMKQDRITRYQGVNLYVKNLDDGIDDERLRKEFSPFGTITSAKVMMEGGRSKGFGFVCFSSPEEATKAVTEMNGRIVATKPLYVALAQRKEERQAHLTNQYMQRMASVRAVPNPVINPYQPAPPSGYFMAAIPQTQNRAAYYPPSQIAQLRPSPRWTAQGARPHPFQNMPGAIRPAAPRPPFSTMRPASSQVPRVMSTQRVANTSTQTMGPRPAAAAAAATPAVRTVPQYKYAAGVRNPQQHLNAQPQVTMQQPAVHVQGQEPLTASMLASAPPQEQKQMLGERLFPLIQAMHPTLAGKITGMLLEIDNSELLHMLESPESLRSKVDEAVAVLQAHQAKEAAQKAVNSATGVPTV
UUG fidelity = modulators of yeast start codon fidelity, primary screen, whole organism, S. cerevisiae, single point, plate reader | S. cerevisiae UUG-firefly luciferase reporter, luminescence/redox ratio | 350,000 compounds, 0.13% hits | activity score, % at 18.7 µM | AID 602363, 2012;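 active = replicate mean at a twofold rise or more, about +100% in these data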;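 also: firefly luciferase made from a UUG start codon reports start codon fidelity; reporter light over untreated wells divided by growth signal over untreated wells; some hits fall short of that in this replicate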
HIV Env fusion = inhibitors of HIV-1 Env-driven cell-cell fusion, primary screen, HeLa-JRFL effector, CEM21 target cells, luciferase; 360,000 compounds, 1.1% hits; inhibition, % at 12.3 µM; AID 651610, 2012;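 active = mean replicate inhibition score of at least 50 and every replicate individually at or above 50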;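 also: 0% = plate neutral controls and 100% = maraviroc near 300 nM; one replicate is shown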
MT1-MMP act inh RFP = second read-out of MT1-MMP act inh, no call of its own (marks repeat the call); RFP signal change, %; measured here: RFP expression control read;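 0 = vehicle wells; hits needed this value within 50% of zero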
Numbers without * were called inactive; i = inactive; . = not tested or not shown. A portion of the library, so the mix of outcomes need not match the whole.

smiles	Rce1 inh	CSC inhib	eIF4H FP inh	MT1-MMP act inh	MT1-MMP act inh RFP	PABP polyA inh	UUG fidelity	HIV Env fusion
O=C(Cc1ccc(Cl)cc1)Nc1ccc(Cl)cn1	i	8	-9	-5	0	-9	-6	-11
CNC(=O)C(=O)N1CCC2(CC1)OCCN2S(=O)(=O)c1ccc(C)cc1	i	0	.	1	3	.	-11	-22
Cc1cccc(NC(=O)COC(=O)c2c(-c3ccccc3)noc2C)c1	.	.	.	2	0	.	-6	6
COc1ccc2cc(C(=O)NCc3ccccc3)c(=O)oc2c1	i	2	1	2	1	7	-17	-18
O=C(CN1CCN(c2ccccn2)CC1)Nc1ccc(F)c(F)c1	i	-4	-2	1	0	8	-11	-10
Cc1ccc(CNC(=O)COc2ccc3c(c2)CCC3)cc1	i	-7	-2	2	7	-4	-28	5
O=C1NC(CCO)C(=O)NC1CCO (stereo unspecified)	.	.	.	-1	2	.	-10	-2
C#CCN1C=CC(=O)[C@@H](OC(=O)Nc2ccccc2Br)[C@H]1c1ccccc1Br	.	.	.	-5	-6	.	-15	-3
CCc1nccn1S(=O)(=O)c1ccc(OC)c(OC)c1	i	-2	4	2	5	-2	-15	9
COc1ccc(NC(=O)COC(=O)c2ccc(Br)o2)cc1OC	i	-5	4	1	2	6	-28	0

Further entries:
smiles	Rce1 inh	CSC inhib	eIF4H FP inh	MT1-MMP act inh	MT1-MMP act inh RFP	PABP polyA inh	UUG fidelity	HIV Env fusion
C#CCOc1c(/C=C\c2nc(O)c([N+](=O)[O-])c(=O)[nH]2)cc(Br)cc1OC	i	-23	-5	2	2	-4	0	-4
O=C(Nc1nccs1)C1CCN(S(=O)(=O)c2ccccc2)CC1	i	-7	-3	-4	-1	-1	-7	-1
Clc1ccc(CSc2nnc(-c3sccc3-n3cccc3)o2)cc1	i	26	1	-2	-4	2	-23	.
O=C(Cc1ccccc1)NC(C(=O)O)C(O)c1ccc([N+](=O)[O-])cc1 (stereo unspecified)	i	-1	0	-1	3	9	.	5
CCCNC(=O)C1(C)CCCN(C(=O)c2cc(C(C)(C)C)nn2C)C1 (stereo unspecified)	.	.	.	5	0	.	-18	1
O=C(CSc1ccc2nnc(-c3cccnc3)n2n1)Nc1ccc(F)cc1	i	-11	-10	3	1	5	-25	-28
CC(=O)c1ccc(OC(=O)Cc2cccc3ccccc23)cc1	i	13	3	-2	3	5	-16	0
CC(CCc1ccc(O)cc1)NC1C2CC3CC(C2)CC1C3 (stereo unspecified)	i	47	-7	5	7	-4	.	.
CN1CCN(CCNC(=O)c2ccc3nc(-c4ccc(F)cc4)c(-c4ccc(F)cc4)nc3c2)CC1	i	-1	-7	4	2	0	5	3
COc1ccc(/C=N/NC(=O)Cn2nc(C)c([N+](=O)[O-])c2C)cc1	i	14	-2	-4	1	0	-12	-4

Three of the entries above in order of the HIV Env fusion value, high to low:
mol	HIV Env fusion
CN1CCN(CCNC(=O)c2ccc3nc(-c4ccc(F)cc4)c(-c4ccc(F)cc4)nc3c2)CC1	3
CCCNC(=O)C1(C)CCCN(C(=O)c2cc(C(C)(C)C)nn2C)C1 (stereo unspecified)	1
CC(=O)c1ccc(OC(=O)Cc2cccc3ccccc23)cc1	0

More results
smiles	Rce1 inh	CSC inhib	eIF4H FP inh	MT1-MMP act inh	MT1-MMP act inh RFP	PABP polyA inh	UUG fidelity	HIV Env fusion
COc1ccc(C(=O)NC(=S)NNC(=O)c2ccco2)cc1	.	21	12	10	8	3	-36	-7
Cc1cc(C)cc(NS(=O)(=O)c2ccc(NC(=S)NC(=O)c3cccs3)cc2)c1	i	50	5	-3	-20	-3	-6	.
CS(=O)(=O)N1CCN(Cc2ccccc2C(F)(F)F)CC1	i	-11	-1	0	-3	-2	-8	.
COc1ccc(N2CCN(CCCNC(=O)C3CCC(CNc4nc(=S)[nH]c5ccccc45)CC3)CC2)cc1 (stereo unspecified)	i	29	-14	12	-13	-3	.	25
Cc1ccc(Nc2nc(CSc3nnc(-c4cccnc4)n3-c3ccccc3F)cs2)cc1	i	-5	-6	-1	-1	4	.	11
COc1cccc(/C=N/NC(=O)c2cc(-c3cccn3C)n[nH]2)c1	i	-6	-13	5	0	-9	0	-41
CC(C)C(C(=O)Nc1ccc(S(=O)(=O)N2CCOCC2)cc1)N1C(=O)c2ccccc2C1=O (stereo unspecified)	i	1	-2	2	6	7	6	12
COc1ccc(-c2n[nH]c(=S)n2-c2ccc3c(c2)OCCO3)cc1OC	i	-10	-1	8	4	12	.	-12
CCCCCC(=O)N1CCCC(c2nc(-c3ccc(OC)cc3)no2)C1 (stereo unspecified)	i	-14	2	-2	-7	-3	-6	33
O=C(COC(=O)c1ccc2c(=O)n3c(nc2c1)CCC3)Nc1ccc(OC(F)F)cc1	i	-1	-9	-1	6	12	.	13

Carrying on.
smiles	Rce1 inh	CSC inhib	eIF4H FP inh	MT1-MMP act inh	MT1-MMP act inh RFP	PABP polyA inh	UUG fidelity	HIV Env fusion
Cc1ccc(-c2noc(CN(C(=O)C(c3ccccc3)c3ccccc3)C(C)C)n2)cc1	i	33	2	-35	-29	5	3	-11
Fc1cccc(NC(=S)N2CCCC2)c1	.	0	-4	1	2	-6	.	-14
COc1ccc(Cc2nnc(N/N=C/c3ccc(N(C)C)cc3)[nH]c2=O)cc1OC	i	-6	-3	19	5	-1	.	-4
COc1ccc(/C=N/NC(=O)Cn2c(Cc3ccc(OC)c(OC)c3)nc3ccccc32)cc1OC	i	0	4	2	0	15	.	.
CC1CCN(S(=O)(=O)c2ccc(NC(=O)CN3C(=O)NC(C)(c4ccccc4)C3=O)cc2)CC1 (stereo unspecified)	i	-15	.	5	-7	.	16	-3
O=C(c1ccco1)N1CCN(Cc2ccccc2F)CC1	i	-4	-2	-2	1	8	-11	11
COc1ccc(NC(=O)Cn2cnc3ccccc3c2=O)cc1OC	i	-4	4	0	2	-8	.	-1
CC(C)(C)c1ccc(C(=O)O/N=C(\N)Cc2cccs2)cc1	.	.	.	-3	-1	.	-2	-38
Cc1ccc2oc(-c3ccco3)cc(=O)c2c1	i	-10	-8	-2	-1	-5	.	-69
COc1ccc(S(=O)(=O)N(C)CC(=O)N2CCN(c3ccc(F)cc3)CC2)cc1OC	i	3	-12	0	-4	-1	27	3

(list continues)
smiles	Rce1 inh	CSC inhib	eIF4H FP inh	MT1-MMP act inh	MT1-MMP act inh RFP	PABP polyA inh	UUG fidelity	HIV Env fusion
O=C(c1cc2cc(Cl)ccc2oc1=O)N1CCCCCCC1	i	-5	-9	2	1	3	6	-14
CCOC(=O)c1ccc2nc(C)c3c(c2c1)OC(C)C3 (stereo unspecified)	i	-7	-8	1	3	-5	-22	.
CC1CCCCN1CC(=O)Nc1ccc(Oc2ccccc2)cc1 (stereo unspecified)	i	63	6	-3	-4	6	0	.
Cc1oc(-c2cccc(F)c2)nc1CN1CCCN(C(=O)c2ccco2)CC1	i	4	-14	-1	2	-2	-11	4
Cc1cc(C)c(-n2c(SCc3nc4ccccc4s3)n[nH]c2=O)c(C)c1	i	4	-4	1	-7	4	.	25
COC(=O)C1=C(Cn2cnc3ccccc32)NC(=O)NC1c1cc(C)ccc1C (stereo unspecified)	i	1	-4	-7	2	-6	-17	.
COc1cc(C2NC(=O)NC(C)=C2C(=O)OC2CCCCC2)cc(Cl)c1O (stereo unspecified)	i	-5	-5	6	1	-5	-14	-6
Cc1ncc([N+](=O)[O-])n1Cc1ccc(F)cc1	i	-17	-7	.	.	5	.	12
COc1cc(NS(=O)(=O)c2ccc(NC(=S)NC(=O)c3sc4ccccc4c3Cl)cc2)nc(OC)n1	i	-3	7	1	5	15	-10	-51
Cc1ccccc1-c1nc2sc(-c3ccccc3)cc2c(=O)o1	i	18	5	6	2	-3	-5	22

By substructure, those above containing two or more sulfur atoms.
smiles	Rce1 inh	CSC inhib	eIF4H FP inh	MT1-MMP act inh	MT1-MMP act inh RFP	PABP polyA inh	UUG fidelity	HIV Env fusion
O=C(Nc1nccs1)C1CCN(S(=O)(=O)c2ccccc2)CC1	i	-7	-3	-4	-1	-1	-7	-1
Clc1ccc(CSc2nnc(-c3sccc3-n3cccc3)o2)cc1	i	26	1	-2	-4	2	-23	.
Cc1cc(C)cc(NS(=O)(=O)c2ccc(NC(=S)NC(=O)c3cccs3)cc2)c1	i	50	5	-3	-20	-3	-6	.
Cc1ccc(Nc2nc(CSc3nnc(-c4cccnc4)n3-c3ccccc3F)cs2)cc1	i	-5	-6	-1	-1	4	.	11
Cc1cc(C)c(-n2c(SCc3nc4ccccc4s3)n[nH]c2=O)c(C)c1	i	4	-4	1	-7	4	.	25
COc1cc(NS(=O)(=O)c2ccc(NC(=S)NC(=O)c3sc4ccccc4c3Cl)cc2)nc(OC)n1	i	-3	7	1	5	15	-10	-51

Additional structures follow:
smiles	Rce1 inh	CSC inhib	eIF4H FP inh	MT1-MMP act inh	MT1-MMP act inh RFP	PABP polyA inh	UUG fidelity	HIV Env fusion
CC1CN(C(=O)CSc2nc(N)c(NC(=O)c3ccc(C(F)(F)F)cc3)c(=O)[nH]2)CC(C)O1 (stereo unspecified)	.	.	.	2	3	.	-2	-10
CCOc1ccc(Oc2ccc(-c3nnc(-c4ccccc4)o3)cc2[N+](=O)[O-])cc1	i	-18	0	2	-4	-5	-9	-4
Cc1c(Cl)cccc1Nc1nc(N)nc(CSc2ncccn2)n1	i	8	-9	10	0	3	-16	-49
CCOc1cc(/C=C(\C#N)c2[nH]nc(N)c2C#N)ccc1O	i	35	11	-31	-7	16	-22	49
CCOC(=O)c1ccccc1N/C=C1\CCCC1=O	i	-2	5	-3	1	4	-4	-68
CN(C)c1nc(N)nc(Cn2ccnc2)n1	i	-8	-2	2	5	4	7	-11
O=C(COC(=O)/C(=C/c1cccs1)c1cccs1)NC(c1ccccc1)c1ccccc1	i	9	4	-24	-20	9	-21	-10
CC(NC(=O)COC(=O)c1ccc2ccccc2n1)c1ccccc1 (stereo unspecified)	.	3	.	2	4	.	.	6
Cc1cc(C)n(CC(C)C(=O)O)n1 (stereo unspecified)	i	-5	18	2	2	-4	7	23
Cc1ccc(O)c(NC(=S)NC(=O)CC(C)C)c1	i	-12	-6	2	-3	-12	.	-28

Going on with the list.
smiles	Rce1 inh	CSC inhib	eIF4H FP inh	MT1-MMP act inh	MT1-MMP act inh RFP	PABP polyA inh	UUG fidelity	HIV Env fusion
COc1ccccc1NC(=S)NC(=O)Cc1ccccc1	i	-12	.	2	0	.	-16	8
O=[N+]([O-])c1ccc(N2CCN(c3cccc(Cl)c3)CC2)nc1	i	19	-8	4	-4	2	-23	-5
COc1ccc(C(=O)N[C@H](C(=O)OCC(=O)NC(=O)c2cccn2C)C(C)C)cc1	i	-11	3	-7	7	6	.	5
COc1ccc(C(=O)OC(C)C(=O)NC2CCCCC2C)cc1S(=O)(=O)N1CCOCC1 (stereo unspecified)	i	-14	.	5	5	.	-1	14
Cc1ccc(/C=C/C(=O)NC2CCCCCCC2)o1	i	145*	1	3	7	-7	.	-3

Assay outcomes deposited in PubChem BioAssay by several laboratories.
